HSV replic up = HSV replication enhancement; HSV replication augmentation in cells, fold increase; maximum fold increase; AID 1956; 0.005% of 220,000 active;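 active means peak rise of 1.5-fold or more in the series; tested in PC3 cells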;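 further: first round at 10 µM; read as green reporter fluorescence; hits show the peak of a series up to 25 µM; 1 = signal of infected wells without compound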
GALR2 ag = activates the human galanin receptor 2; O43603; GALR2-expressing cells, agonist activation read-out; activation, %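 (tested at 5 µM)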; 0.48% of 140,000 active; AID 803;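 active means above mean plus 3 SD of all compounds, about 5% in these data, not always enough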;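 further: 0% = vehicle buffer wells and 100% = reference agonist at full effect; tested in CHO reporter cells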
RGS16-Gao HTS = RGS16-Galphao interaction regulator (human) | O15492+P09471 | bead-based flow cytometry RGS16-Galphao binding, fluorescence; actives lie on both sides | binding response (% of control), % at 10 µM | 0.38% of 220,000 active;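 active means below 25% or above 175%, edge rows of some plates excepted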;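 further: Galphao activated by GDP with aluminum fluoride before binding; 100% = wells without compound and 0% = beads without RGS; some results beyond the cut were filed as inactive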
INS promoter inh = TRM-6 insulin promoter activity inhibition | TRM-6 cells (human fetal islet line), insulin promoter-eGFP reporter, imaging; reporter expression induced with tamoxifen | inhibition, % at 2 µM | 0.9% of 130,000 active | AID 1273;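 active means inhibition above the mean plus 3 SD, with well images judged a real hit on visual review, cut at about 60% in these data, passing the limit was not always enough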
PKD1 inh = PKD1 (human) kinase inhibition. Q15139. PKD1 kinase fluorescence polarization assay. inhibition, %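 (about 10 µM by stock and volumes)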. 0.056% of 200,000 active;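 active means inhibition of 50% or more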;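 further: controls were vehicle for no effect and a reference inhibitor for full effect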
Target sequence (Q15139 whole entry, looked up): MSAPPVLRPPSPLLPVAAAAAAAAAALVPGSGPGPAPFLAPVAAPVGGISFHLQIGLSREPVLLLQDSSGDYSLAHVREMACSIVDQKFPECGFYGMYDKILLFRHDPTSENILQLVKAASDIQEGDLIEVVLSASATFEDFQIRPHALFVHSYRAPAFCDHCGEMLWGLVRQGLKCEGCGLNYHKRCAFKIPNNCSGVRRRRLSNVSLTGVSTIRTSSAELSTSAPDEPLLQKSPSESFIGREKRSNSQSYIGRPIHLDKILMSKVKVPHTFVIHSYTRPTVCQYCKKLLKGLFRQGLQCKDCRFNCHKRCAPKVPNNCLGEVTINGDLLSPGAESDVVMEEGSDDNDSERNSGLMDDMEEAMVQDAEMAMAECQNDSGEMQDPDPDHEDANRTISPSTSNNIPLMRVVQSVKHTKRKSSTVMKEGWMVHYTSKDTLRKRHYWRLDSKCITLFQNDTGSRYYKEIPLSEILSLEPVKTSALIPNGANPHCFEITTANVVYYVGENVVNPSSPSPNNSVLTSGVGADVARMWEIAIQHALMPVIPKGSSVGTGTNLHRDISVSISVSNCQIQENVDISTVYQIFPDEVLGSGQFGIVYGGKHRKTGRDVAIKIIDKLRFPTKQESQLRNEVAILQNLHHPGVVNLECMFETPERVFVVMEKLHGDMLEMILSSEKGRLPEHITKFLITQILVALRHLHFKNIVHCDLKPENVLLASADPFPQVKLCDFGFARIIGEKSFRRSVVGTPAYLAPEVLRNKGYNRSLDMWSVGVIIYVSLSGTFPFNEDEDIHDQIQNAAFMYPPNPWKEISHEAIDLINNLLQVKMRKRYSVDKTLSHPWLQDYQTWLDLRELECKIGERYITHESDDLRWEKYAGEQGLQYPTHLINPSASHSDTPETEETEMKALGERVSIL
INS promoter inh cell count = recorded beside INS promoter inh, whose call it bears; normalized cell count, %; measured here: cell count, toxicity; reference of the scale not given here;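 cells exposed to compound for 48 h; stained nuclei by imaging scaled within each plate; lower means fewer cells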
HSV replic up primary fold = also measured in HSV replic up; calls as there; fold increase; compound at 10 µM; measured here: primary screen fold increase 10 uM; tested in PC3 cells;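 GFP signal in the first replicate; 1 = infected wells without compound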
* = called active by the depositor.

Results for CC(C)(C)NC(=O)C(c1ccncc1)N(C(=O)C1CSC(=O)C1)c1ccccc1 (centres undefined) ?
HSV replic up: inactive; RGS16-Gao HTS: 103; PKD1 inh: 3; HSV replic up primary fold: 1

Results for CCCCNS(=O)(=O)c1ccc(OC)c(Cl)c1Cl ?
HSV replic up: inactive; GALR2 ag: -5.7; RGS16-Gao HTS: 99; INS promoter inh: 9; PKD1 inh: -6; INS promoter inh cell count: 131; HSV replic up primary fold: 0.9

Results for CC(C)(C)NC(=O)c1oc2ccccc2c1COc1ccccc1 ?
HSV replic up: inactive; GALR2 ag: -0.9; RGS16-Gao HTS: 91; INS promoter inh: -53; PKD1 inh: 1; INS promoter inh cell count: 130; HSV replic up primary fold: 1.1

What do the screens show for `Cc1cc(C)c(C#N)c(Sc2nnnn2-c2ccccc2)n1`?
HSV replic up: inactive; GALR2 ag: -0.3; RGS16-Gao HTS: 103; PKD1 inh: -8; HSV replic up primary fold: 1.1

What do the screens show for `COc1ccc(NCC(=O)N/N=C/C2CCCCC2)cc1`?
HSV replic up: inactive; RGS16-Gao HTS: 102; HSV replic up primary fold: 0.97

What do the screens show for `CSc1nc(NCc2ccco2)c2ccccc2n1`?
HSV replic up: inactive; GALR2 ag: -0.9; RGS16-Gao HTS: 97; INS promoter inh: -21; PKD1 inh: -12; INS promoter inh cell count: 73; HSV replic up primary fold: 0.96

Results for Cc1cc(O)ccc1NC(=O)c1ccccc1 ?
HSV replic up: inactive; GALR2 ag: -1.8; RGS16-Gao HTS: 105; PKD1 inh: 1; HSV replic up primary fold: 0.97

Results for CCN(CC)S(=O)(=O)c1cc(OC)c(C)cc1C ?
HSV replic up: inactive; RGS16-Gao HTS: 103; PKD1 inh: 7; HSV replic up primary fold: 0.88

What do the screens show for `COc1cc(C(=O)NCCc2ccc(S(N)(=O)=O)cc2)cc(OC)c1OC`?
HSV replic up: inactive; GALR2 ag: -0.6; RGS16-Gao HTS: 108; PKD1 inh: -5; HSV replic up primary fold: 0.89

How did O=C(c1cccc(S(=O)(=O)N2CCOCC2)c1)N1CCN(c2ccc(F)cc2)CC1 do in these assays?
HSV replic up: inactive; GALR2 ag: -1.3; RGS16-Gao HTS: 102; INS promoter inh: 7; PKD1 inh: 3; INS promoter inh cell count: 156; HSV replic up primary fold: 1.1

Results for N#Cc1c(N2C(=O)Nc3ccccc3N2O)sc2c1CCCC2 ?
HSV replic up: inactive; RGS16-Gao HTS: 106; INS promoter inh: 33; PKD1 inh: -6; INS promoter inh cell count: 144; HSV replic up primary fold: 0.96

What do the screens show for `CC1(c2ccccc2)NC(=O)N(CC(=O)NC(=O)NC2CCCC2)C1=O` (centres undefined)?
HSV replic up: inactive; GALR2 ag: -1.7; RGS16-Gao HTS: 99; PKD1 inh: -9; HSV replic up primary fold: 0.78

How did CCC(Cc1ccccc1)NC(=O)CN1C(=O)CSc2ncccc21 (centres undefined) do in these assays?
HSV replic up: inactive; GALR2 ag: -0.3; RGS16-Gao HTS: 99; PKD1 inh: -12; HSV replic up primary fold: 1

Results for COc1ccc(-c2cc3nc(C)c(CCC(=O)N4CCN(c5ccccn5)CC4)c(C)n3n2)c(OC)c1 ?
HSV replic up: inactive; RGS16-Gao HTS: 102; PKD1 inh: 0; HSV replic up primary fold: 0.96

How did Cc1n(CC(O)COC2CCCCC2)c2ccccc2[n+]1C (centres undefined) do in these assays?
HSV replic up: inactive; GALR2 ag: -1.4; RGS16-Gao HTS: 95; INS promoter inh: 60; PKD1 inh: -8; INS promoter inh cell count: 99; HSV replic up primary fold: 1

Results for COc1cccc(/C=C/C(=O)OCC(=O)Nc2ccc(Cl)c(S(=O)(=O)N(C)C)c2)c1OC ?
HSV replic up: inactive; RGS16-Gao HTS: 93; PKD1 inh: -3; HSV replic up primary fold: 0.95

What do the screens show for `Cn1c(=O)cc(OCC(=O)NC2CCCCC2)c2ccccc21`?
HSV replic up: inactive; GALR2 ag: -0.6; INS promoter inh: -13; PKD1 inh: 2; INS promoter inh cell count: 85; HSV replic up primary fold: 0.63

Results for CCc1cccc2c(=O)c(C(=O)N3CCCCCC3)c[nH]c12 ?
HSV replic up: inactive; GALR2 ag: -0.2; RGS16-Gao HTS: 100; INS promoter inh: 4; PKD1 inh: 3; INS promoter inh cell count: 99; HSV replic up primary fold: 0.75

Results for Nc1nc(Sc2c([N+](=O)[O-])cc(C(F)(F)F)cc2[N+](=O)[O-])n[nH]1 ?
HSV replic up: inactive; RGS16-Gao HTS: 99; HSV replic up primary fold: 0.79

Results for Cc1cc(C)c(S(C)(=O)=O)c(Oc2ccc(C(C)(C)C)cc2)n1 ?
GALR2 ag: -0.5; RGS16-Gao HTS: 118; INS promoter inh: 33; PKD1 inh: 6; INS promoter inh cell count: 164

Next part, starting with the last five of the part before.
Results for COc1cccc(/C=C/C(=O)OCC(=O)Nc2ccc(Cl)c(S(=O)(=O)N(C)C)c2)c1OC ?
HSV replic up: inactive; RGS16-Gao HTS: 93; PKD1 inh: -3; HSV replic up primary fold: 0.95

What do the screens show for `Cn1c(=O)cc(OCC(=O)NC2CCCCC2)c2ccccc21`?
HSV replic up: inactive; GALR2 ag: -0.6; INS promoter inh: -13; PKD1 inh: 2; INS promoter inh cell count: 85; HSV replic up primary fold: 0.63

Results for CCc1cccc2c(=O)c(C(=O)N3CCCCCC3)c[nH]c12 ?
HSV replic up: inactive; GALR2 ag: -0.2; RGS16-Gao HTS: 100; INS promoter inh: 4; PKD1 inh: 3; INS promoter inh cell count: 99; HSV replic up primary fold: 0.75

Results for Nc1nc(Sc2c([N+](=O)[O-])cc(C(F)(F)F)cc2[N+](=O)[O-])n[nH]1 ?
HSV replic up: inactive; RGS16-Gao HTS: 99; HSV replic up primary fold: 0.79

Results for Cc1cc(C)c(S(C)(=O)=O)c(Oc2ccc(C(C)(C)C)cc2)n1 ?
GALR2 ag: -0.5; RGS16-Gao HTS: 118; INS promoter inh: 33; PKD1 inh: 6; INS promoter inh cell count: 164

What do the screens show for `NC(=O)NC(c1ccccc1)c1ccccc1F` (centres undefined)?
HSV replic up: inactive; GALR2 ag: 0.1; RGS16-Gao HTS: 102; INS promoter inh: -16; PKD1 inh: -5; INS promoter inh cell count: 114; HSV replic up primary fold: 0.87

Results for COC(=O)c1oc2nc(C)cc(C)c2c1N ?
HSV replic up: inactive; GALR2 ag: -0.2; RGS16-Gao HTS: 100; INS promoter inh: 48; PKD1 inh: 0; INS promoter inh cell count: 79; HSV replic up primary fold: 0.8

Results for Cc1[nH][nH]c(=O)c1C=NCc1cccc(C(F)(F)F)c1 ?
HSV replic up: inactive; RGS16-Gao HTS: 98; PKD1 inh: -2; HSV replic up primary fold: 1.1

How did Cc1nnc(N(Cc2ccco2)C(=O)c2cccc(C#N)c2)s1 do in these assays?
HSV replic up: inactive; GALR2 ag: -1.2; RGS16-Gao HTS: 104; INS promoter inh: 0; PKD1 inh: -10; INS promoter inh cell count: 97; HSV replic up primary fold: 1

What do the screens show for `COc1ccc(/C=N/Nc2ncnc(Cl)c2N)cc1OC`?
HSV replic up: inactive; GALR2 ag: -0.2; RGS16-Gao HTS: 147; INS promoter inh: -72; PKD1 inh: 9; INS promoter inh cell count: 60; HSV replic up primary fold: 1.1

How did CC(C)NC(=O)Cn1c(SCC(=O)N2CCCc3ccccc32)nc2ccccc21 do in these assays?
HSV replic up: inactive; GALR2 ag: -1.9; RGS16-Gao HTS: 98; PKD1 inh: -7; HSV replic up primary fold: 0.96

How did CCOc1ccc(N(Cc2ccccc2F)C2=NC3CS(=O)(=O)CC3S2)cc1 (centres undefined) do in these assays?
HSV replic up: inactive; RGS16-Gao HTS: 92; PKD1 inh: -4; HSV replic up primary fold: 0.93

Results for COc1ccc(Br)cc1C(=O)Nc1ccc(O)cc1 ?
HSV replic up: inactive; GALR2 ag: -1.8; RGS16-Gao HTS: 104; INS promoter inh: -42; PKD1 inh: -2; INS promoter inh cell count: 130; HSV replic up primary fold: 0.89

Results for CCc1ccccc1NC(=O)CC1CS(=O)(=O)CC1CC(=O)Nc1ccccc1CC (centres undefined) ?
HSV replic up: inactive; GALR2 ag: -0.2; RGS16-Gao HTS: 94; INS promoter inh: -46; PKD1 inh: 9; INS promoter inh cell count: 94; HSV replic up primary fold: 1

What do the screens show for `COC(=O)c1ccc(OCc2nc(N)nc(N3CCOCC3)n2)cc1`?
HSV replic up: inactive; GALR2 ag: -1.0; RGS16-Gao HTS: 95; INS promoter inh: 26; PKD1 inh: 1; INS promoter inh cell count: 72; HSV replic up primary fold: 1

What do the screens show for `CCOC(=O)c1nnc(-c2ccccc2)nc1Sc1ccccc1Cl`?
HSV replic up: inactive; GALR2 ag: -2.6; RGS16-Gao HTS: 100; INS promoter inh: -10; PKD1 inh: -6; INS promoter inh cell count: 109; HSV replic up primary fold: 0.93

What do the screens show for `CC(=O)N(Cc1ccccc1)c1ccc(C(=O)O)cc1`?
HSV replic up: inactive; GALR2 ag: -1.1; RGS16-Gao HTS: 106; PKD1 inh: -17; HSV replic up primary fold: 0.93

Results for COc1cc(CC(=O)O)c([N+](=O)[O-])cc1OC ?
HSV replic up: inactive; RGS16-Gao HTS: 98; HSV replic up primary fold: 1.1

How did CCOC(=O)c1c(-c2cccc(N)c2)cn2ccccc12 do in these assays?
HSV replic up: inactive; RGS16-Gao HTS: 98; INS promoter inh: -39; PKD1 inh: -3; INS promoter inh cell count: 116; HSV replic up primary fold: 0.93

What do the screens show for `Cc1cc(NC(=O)c2cccc([N+](=O)[O-])c2)no1`?
HSV replic up: inactive; RGS16-Gao HTS: 100; HSV replic up primary fold: 0.6

Results for CCOc1ncccc1C(=O)NCc1cccc(OC)c1 ?
HSV replic up: inactive; GALR2 ag: -0.8; RGS16-Gao HTS: 107; INS promoter inh: -7; PKD1 inh: 2; INS promoter inh cell count: 104; HSV replic up primary fold: 0.92

What do the screens show for `Cc1ccc(NC(=O)c2snc3ccc(Cl)cc23)cc1C`?
HSV replic up: inactive; GALR2 ag: -2.4; RGS16-Gao HTS: 102; INS promoter inh: -13; PKD1 inh: -6; INS promoter inh cell count: 128; HSV replic up primary fold: 1

What do the screens show for `COC(=O)c1ccc(C2/C(=C(\O)c3ccc(OC)c(C)c3)C(=O)C(=O)N2c2cc(C)on2)cc1` (centres undefined)?
HSV replic up: inactive; GALR2 ag: -1.0; RGS16-Gao HTS: 92; PKD1 inh: -9; HSV replic up primary fold: 1

What do the screens show for `Cc1ccc(NC(=O)C(=O)N2CCCC2)cc1Cl`?
HSV replic up: inactive; GALR2 ag: -1.9; RGS16-Gao HTS: 98; INS promoter inh: -16; PKD1 inh: 3; INS promoter inh cell count: 153; HSV replic up primary fold: 0.85

Results for CC1(C)CC(=O)C(N=Nc2cccc(F)c2C#N)=C(O)C1 ?
HSV replic up: inactive; RGS16-Gao HTS: 105; HSV replic up primary fold: 1

How did Cc1cccc2c1-c1sc(C(=O)Nc3nccs3)cc1CO2 do in these assays?
HSV replic up: inactive; GALR2 ag: 89*; RGS16-Gao HTS: 47; PKD1 inh: -3; HSV replic up primary fold: 0.75

Results for CC1=NCCN1S(=O)(=O)c1ccccc1[N+](=O)[O-] ?
RGS16-Gao HTS: 99; INS promoter inh: 57; PKD1 inh: 0; INS promoter inh cell count: 118

How did CC(c1ccco1)N(C(=O)C12CC3CC(CC(C3)C1)C2)c1ccccn1 (centres undefined) do in these assays?
HSV replic up: inactive; GALR2 ag: 0.1; RGS16-Gao HTS: 107; PKD1 inh: -1; HSV replic up primary fold: 0.99

How did Cc1cc(C)c(C(=O)CSc2nnc(-c3ccccc3Br)o2)cc1C do in these assays?
HSV replic up: inactive; GALR2 ag: -1.4; RGS16-Gao HTS: 107; INS promoter inh: -32; PKD1 inh: -2; INS promoter inh cell count: 54; HSV replic up primary fold: 0.97

Results for COc1ccc(CCNC(=O)COc2ccc(S(=O)(=O)NC(C)C)cc2)cc1OC ?
HSV replic up: inactive; RGS16-Gao HTS: 103; PKD1 inh: 3; HSV replic up primary fold: 0.94

How did CC(=O)c1cccc(NC(=S)NCc2ccco2)c1 do in these assays?
HSV replic up: inactive; RGS16-Gao HTS: 112; INS promoter inh: 0; PKD1 inh: -1; INS promoter inh cell count: 68; HSV replic up primary fold: 0.97

How did CN(C)CCN1C(=O)C(=O)/C(=C(/O)c2ccc(F)cc2)C1c1ccccc1F (centres undefined) do in these assays?
HSV replic up: inactive; GALR2 ag: 0.3; RGS16-Gao HTS: 103; PKD1 inh: -8; HSV replic up primary fold: 0.9

Results for COC(=O)c1c(NC(=O)COC(=O)[C@@H](NS(=O)(=O)c2ccccc2)C(C)C)sc2c1CCC2 ?
HSV replic up: inactive; GALR2 ag: -0.9; RGS16-Gao HTS: 115; INS promoter inh: -37; PKD1 inh: -9; INS promoter inh cell count: 57; HSV replic up primary fold: 0.91

From PubChem
